Screens: PubChem BioAssay, several laboratories
CBX7 AlphaScr – blocks human CBX7 binding to H3K27me3 peptide. O95931. AlphaScreen His6-CBX7 / biotin-H3K27me3 peptide binding; hits give low values. normalised signal (fraction of DMSO) (test concentration not listed). hit rate 1.1% among 66,000. AID 1224903; in the data active = normalised signal below about 0.5;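 also: 100 nL library stock added to about 20 µL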
Target sequence (O95931 whole entry, looked up): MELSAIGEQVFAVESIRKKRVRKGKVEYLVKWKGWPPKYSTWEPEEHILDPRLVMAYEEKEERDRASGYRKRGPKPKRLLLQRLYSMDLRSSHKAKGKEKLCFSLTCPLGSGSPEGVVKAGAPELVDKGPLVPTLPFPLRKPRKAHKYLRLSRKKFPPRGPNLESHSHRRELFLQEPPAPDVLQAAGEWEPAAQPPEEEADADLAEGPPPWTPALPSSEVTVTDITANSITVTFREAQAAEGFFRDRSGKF
CBX7 AlphaScr z-score – recorded beside CBX7 AlphaScr, whose call it bears; z-score; measured here: z-score of CBX7 signal; some inactives read as strong as hits; reference of the scale not given here;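 same signal on another scale; lower means less binding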
The depositor's hits bear a star; & = joins results of further samples. Some of the compounds tested; count on the stated rates, not on these rows.

What do the screens show for `Cc1onc(-c2ccccc2Cl)c1C(=O)Nc1ccc2oc(-c3ccc(Cl)cc3)nc2c1`?
CBX7 AlphaScr: 0.99; CBX7 AlphaScr z-score: -0.16

Results for CCC1=Nc2cc(C(=O)NCCN3CCCC3)ccc2Sc2ccc(C)cc21 ?
CBX7 AlphaScr: 1; CBX7 AlphaScr z-score: 0.16

Results for Cc1nc2cc(-c3ccccc3)nn2c(C)c1CCC(=O)N1CCN(c2ccc(F)cc2)CC1 ?
CBX7 AlphaScr: 0.96; CBX7 AlphaScr z-score: -1.2

How did COc1ccc2nc(Nc3nc(-c4ccccc4)cc(=O)[nH]3)nc(C)c2c1 do in these assays?
CBX7 AlphaScr: 1; CBX7 AlphaScr z-score: 0.12

What do the screens show for `CCOC(=O)c1[nH]c2c(c1Cc1ccccc1OC)C(=O)CC(c1ccc(OCC)cc1)C2` (configuration not stated)?
CBX7 AlphaScr: 1; CBX7 AlphaScr z-score: 0.43

What do the screens show for `CCC(=O)Nc1cc(-c2nc3cc(C(C)C)ccc3o2)ccc1Cl`?
CBX7 AlphaScr: 1.1; CBX7 AlphaScr z-score: 0.96

What do the screens show for `COCCNC(=O)C1CCCN(S(=O)(=O)c2c(C)noc2/C=C/c2cccs2)C1` (configuration not stated)?
CBX7 AlphaScr: 1; CBX7 AlphaScr z-score: 0.46

How did O=C(NC1CCCC1)c1cc(-c2cccc(Cl)c2)on1 do in these assays?
CBX7 AlphaScr: 1.1; CBX7 AlphaScr z-score: 0.8

Results for COc1ccc(CSc2ncnc3nc[nH]c23)cc1 ?
CBX7 AlphaScr: 1; CBX7 AlphaScr z-score: 0.37

How did COc1ccc(C(=O)CC2(O)C(=O)N(CC(N)=O)c3ccccc32)cc1 (configuration not stated) do in these assays?
CBX7 AlphaScr: 0.98; CBX7 AlphaScr z-score: -0.019

How did Cc1ccc(C)c(CSc2nc3ccncc3n2CC(=O)Nc2ccc(C)c(C)c2)c1 do in these assays?
CBX7 AlphaScr: 0.99; CBX7 AlphaScr z-score: -0.59

Results for Cc1ccc(-c2nnc(Nc3cccc(Cl)c3)c3ccccc23)cc1S(=O)(=O)N1CCOCC1 ?
CBX7 AlphaScr: 0.86; CBX7 AlphaScr z-score: -2.6

How did CCc1c(C)nc(Nc2nc(C)c3ccccc3n2)[nH]c1=O do in these assays?
CBX7 AlphaScr: 0.99; CBX7 AlphaScr z-score: -0.017

How did Cc1ccc2c(c1)C(c1ccc(F)cc1)N(C(=O)Cc1ccc(F)cc1)CC(=O)N2 (configuration not stated) do in these assays?
CBX7 AlphaScr: 0.69; CBX7 AlphaScr z-score: -5.6

How did COc1ccc(NC(=O)c2cnc(N3CCN(c4ccccc4OC)CC3)c3ccccc23)cc1Cl do in these assays?
CBX7 AlphaScr: 0.91; CBX7 AlphaScr z-score: -2.3

What do the screens show for `CCOC(=O)c1ccc2c(c1)N(Cc1ccc(Cl)cc1)C(=O)CS2`?
CBX7 AlphaScr: 0.99; CBX7 AlphaScr z-score: -0.23

What do the screens show for `Cc1ccc(NC(=O)Cn2cc(S(=O)(=O)c3ccc(C)c(C)c3)c(=O)c3ccccc32)cc1`?
CBX7 AlphaScr: 0.85; CBX7 AlphaScr z-score: -2.1

How did CC1CCC(NC(=O)CN2C(=O)COc3ccc(S(=O)(=O)N4CCCC4)cc32)CC1 (configuration not stated) do in these assays?
CBX7 AlphaScr: 1.1; CBX7 AlphaScr z-score: 1.3

What do the screens show for `O=C(CSc1nnc(COc2ccccc2)o1)N1CCCc2ccccc21`?
CBX7 AlphaScr: 1.1; CBX7 AlphaScr z-score: 2.4

What do the screens show for `COc1cccc(NC(=O)CSc2nnc(Cc3cc(=O)[nH]c(=O)[nH]3)n2-c2ccc(F)cc2)c1`?
CBX7 AlphaScr: 0.94; CBX7 AlphaScr z-score: -1.6

How did O=C(CCn1nc(-c2ccc(Cl)cc2)c2ccccc2c1=O)Nc1cccc(Cl)c1 do in these assays?
CBX7 AlphaScr: 0.99; CBX7 AlphaScr z-score: -0.25

What do the screens show for `CN1CCN(CCCNC(=O)CN2C(=O)CSc3ncccc32)CC1`?
CBX7 AlphaScr: 1.1; CBX7 AlphaScr z-score: 0.19

What do the screens show for `CCOc1ccc(C(=O)Nc2cccc(OC)c2)cc1OCC`?
CBX7 AlphaScr: 1.1; CBX7 AlphaScr z-score: 1.6

Results for COc1cccc(OCC(=O)N(Cc2nc(-c3ccccc3)no2)C(C)C)c1 ?
CBX7 AlphaScr: 1.1; CBX7 AlphaScr z-score: 2

What do the screens show for `COc1ccc(-c2noc(CCC(=O)NCCCN3CCCC3)n2)cc1`?
CBX7 AlphaScr: 1; CBX7 AlphaScr z-score: 0.5

What do the screens show for `Cc1ccccc1Nc1nc2nonc2n2nnnc12`?
CBX7 AlphaScr: 1.1&1; CBX7 AlphaScr z-score: 1.6&1.1

Results for COc1cccc(CNC(=O)CCCOc2cc(=O)n(C)c3ccccc23)c1 ?
CBX7 AlphaScr: 0.95; CBX7 AlphaScr z-score: -0.87

How did COc1ccc(N(CCN2CCCCC2)S(=O)(=O)c2ccc(C)cc2)cc1 do in these assays?
CBX7 AlphaScr: 1; CBX7 AlphaScr z-score: 0.067

How did CCCCOc1ccc(-c2nc(-c3ccc(Br)cc3)no2)cc1 do in these assays?
CBX7 AlphaScr: 1.1; CBX7 AlphaScr z-score: 2.7

How did O=C(NC1CCCCCC1)c1nnc(Cc2ccc(F)cc2)o1 do in these assays?
CBX7 AlphaScr: 1; CBX7 AlphaScr z-score: 0.57

Looked up by structure from the list above:
What do the screens show for `COc1ccc(-c2noc(CCC(=O)NCCCN3CCCC3)n2)cc1`?
CBX7 AlphaScr: 1; CBX7 AlphaScr z-score: 0.5

What do the screens show for `Cc1ccccc1Nc1nc2nonc2n2nnnc12`?
CBX7 AlphaScr: 1.1&1; CBX7 AlphaScr z-score: 1.6&1.1

How did CCCCOc1ccc(-c2nc(-c3ccc(Br)cc3)no2)cc1 do in these assays?
CBX7 AlphaScr: 1.1; CBX7 AlphaScr z-score: 2.7

What do the screens show for `CCOc1ccc(C(=O)Nc2cccc(OC)c2)cc1OCC`?
CBX7 AlphaScr: 1.1; CBX7 AlphaScr z-score: 1.6

Carrying on.
How did CCCCOc1ccc(C(=O)Nc2ccc3oc(-c4cc(Br)ccc4Cl)nc3c2)cc1 do in these assays?
CBX7 AlphaScr: 1; CBX7 AlphaScr z-score: 1.1

How did COc1ccc(NC(=O)c2nnn(Cc3ccccc3)c2N)cc1 do in these assays?
CBX7 AlphaScr: 1.1; CBX7 AlphaScr z-score: 0.92

How did O=C(c1ccccc1)c1cnc(Nc2nc3ccccc3s2)nc1-c1ccccc1 do in these assays?
CBX7 AlphaScr: 1.2; CBX7 AlphaScr z-score: 3.3

Results for CCC(=O)N1CCc2cc(S(=O)(=O)NCCCOC)ccc21 ?
CBX7 AlphaScr: 1.1; CBX7 AlphaScr z-score: 1.4

What do the screens show for `O=C(c1cnn(-c2ccccc2)c1-n1cccc1)N1CCCC(C(=O)N2CCCC2)C1` (configuration not stated)?
CBX7 AlphaScr: 0.95; CBX7 AlphaScr z-score: -0.41

Results for COCC(C)NC(=O)c1cc(-c2ccc(Cl)cc2)on1 (configuration not stated) ?
CBX7 AlphaScr: 1; CBX7 AlphaScr z-score: 0.67

What do the screens show for `Cc1ccc(Sc2cc(C(=O)N3CCOCC3)c3ccccc3n2)cc1`?
CBX7 AlphaScr: 1; CBX7 AlphaScr z-score: 0.72

How did CCCCCCc1c(O)nc(SCCN2CCOCC2)n(-c2ccccc2)c1=O do in these assays?
CBX7 AlphaScr: 1; CBX7 AlphaScr z-score: 1.6

Results for CCC1Oc2ccc(C)cc2N(CC(=O)NC2CCC(C)CC2)C1=O (configuration not stated) ?
CBX7 AlphaScr: 1.1; CBX7 AlphaScr z-score: 1.6

Results for O=C(CN1C(=O)CCSc2ccccc21)N1CCCC1 ?
CBX7 AlphaScr: 1; CBX7 AlphaScr z-score: 0.2

Filtered by structure: the entries above with bromine
How did CCCCOc1ccc(-c2nc(-c3ccc(Br)cc3)no2)cc1 do in these assays?
CBX7 AlphaScr: 1.1; CBX7 AlphaScr z-score: 2.7

How did CCCCOc1ccc(C(=O)Nc2ccc3oc(-c4cc(Br)ccc4Cl)nc3c2)cc1 do in these assays?
CBX7 AlphaScr: 1; CBX7 AlphaScr z-score: 1.1

More records:
How did Cc1ccc(C)c2[nH]c(=O)c(CCNC(=O)c3cc(Br)ccc3Cl)cc12 do in these assays?
CBX7 AlphaScr: 1; CBX7 AlphaScr z-score: 0.96

Results for COc1cccc(C2C(=O)N(C3CCC(C)CC3)CC(=O)N2CCc2ccccc2)c1OC (configuration not stated) ?
CBX7 AlphaScr: 0.9; CBX7 AlphaScr z-score: -2.2

What do the screens show for `COc1ccc(NC(=O)c2cc(-c3ccc(Cl)cc3)on2)c(OC)c1`?
CBX7 AlphaScr: 1; CBX7 AlphaScr z-score: 0.054

What do the screens show for `CCC1CCCCN1CCCNC(=O)CNC(=O)c1cccs1` (configuration not stated)?
CBX7 AlphaScr: 1.1; CBX7 AlphaScr z-score: 0.11

Results for O=C1CN(C(=O)CC2CCCCC2)C(c2ccccc2)c2cc(F)ccc2N1 (configuration not stated) ?
CBX7 AlphaScr: 0.99; CBX7 AlphaScr z-score: -0.039

What do the screens show for `O=C1CCc2cc(S(=O)(=O)N3CCC(C(=O)NCCC4=CCCCC4)CC3)ccc2N1`?
CBX7 AlphaScr: 1; CBX7 AlphaScr z-score: 0.14

How did O=C(Cn1nc(-c2ccc(Cl)cc2)ccc1=O)N1CCN(Cc2ccccc2)CC1 do in these assays?
CBX7 AlphaScr: 0.98; CBX7 AlphaScr z-score: -0.81

What do the screens show for `CCC(C)NC(=O)CN1CCN(Cc2ccccc2C)C1=O` (configuration not stated)?
CBX7 AlphaScr: 1; CBX7 AlphaScr z-score: 0.55

What do the screens show for `COc1ccc(-c2ccc(=O)n(CC(=O)Nc3ccc(C)cc3)n2)cc1`?
CBX7 AlphaScr: 1; CBX7 AlphaScr z-score: -0.039

What do the screens show for `O=C(NCc1ccc(F)cc1)c1nn2c(C(F)(F)F)cc(-c3cccs3)nc2c1Br`?
CBX7 AlphaScr: 1.2; CBX7 AlphaScr z-score: 1.9

How did Cc1oc(-c2ccc(Cl)cc2)nc1C(=O)NCc1cccs1 do in these assays?
CBX7 AlphaScr: 1; CBX7 AlphaScr z-score: 0.11

Results for CCOC(=O)c1nc(N2CCN(c3ccccc3)CC2)c2ccccc2n1 ?
CBX7 AlphaScr: 0.64; CBX7 AlphaScr z-score: -6.2

Results for Cc1ccc(NCc2nc3ccccc3n2Cc2ccccc2)cc1 ?
CBX7 AlphaScr: 0.85; CBX7 AlphaScr z-score: -6

How did COc1ccc(-n2c(C)nc3cc(C(=O)NC4CCCC(C)C4C)ccc32)cc1 (configuration not stated) do in these assays?
CBX7 AlphaScr: 0.82; CBX7 AlphaScr z-score: -3.1

Results for COc1ccc(CNc2cccc(-c3nc4ccccc4o3)c2)cc1OC ?
CBX7 AlphaScr: 0.94; CBX7 AlphaScr z-score: -0.88

How did Cc1ccc(-c2cn(-c3ccc(C)c(F)c3)c(=O)[nH]2)cc1 do in these assays?
CBX7 AlphaScr: 1.1; CBX7 AlphaScr z-score: 2

What do the screens show for `Cc1ccc(-c2noc(CN3CCN(c4ccccn4)CC3)n2)cc1`?
CBX7 AlphaScr: 1; CBX7 AlphaScr z-score: 0.02

How did CN1C(=O)CSc2ccc(NC(=O)NCc3ccccc3)cc21 do in these assays?
CBX7 AlphaScr: 0.96; CBX7 AlphaScr z-score: -1.2

Results for O=S(=O)(c1cc(Cl)ccc1Cl)n1c(/C=C/c2ccc(F)cc2)nc2ccccc21 ?
CBX7 AlphaScr: 0.99; CBX7 AlphaScr z-score: -0.64

Results for Cc1cc(N2CC(C)CC(C)C2)nc2ccc(NC(=O)CCC(=O)Nc3ccc(F)cc3F)cc12 (configuration not stated) ?
CBX7 AlphaScr: 1.1; CBX7 AlphaScr z-score: 3.8

How did Cc1ncc(CO)c2cc(-c3nnc(Nc4cc(C(F)(F)F)ccc4Cl)s3)c(=O)oc12 do in these assays?
CBX7 AlphaScr: 1; CBX7 AlphaScr z-score: 0.51

What do the screens show for `C=CCn1c(COc2ccccc2C)nc2ccccc21`?
CBX7 AlphaScr: 0.96; CBX7 AlphaScr z-score: -1.4

How did CCOc1ccc(N2C(=O)C3C4C=CC(C4=C(C)C)C3C2=O)cc1 (configuration not stated) do in these assays?
CBX7 AlphaScr: 0.88; CBX7 AlphaScr z-score: -2

What do the screens show for `Cc1c(Cl)cccc1NC(=O)C(=O)NCc1ccc2c(c1)OCO2`?
CBX7 AlphaScr: 1; CBX7 AlphaScr z-score: 1.3

Results for CC1CCCCC1NC(=O)c1ccc2nc(N3CCOCC3)sc2c1 (configuration not stated) ?
CBX7 AlphaScr: 1; CBX7 AlphaScr z-score: 0.53

What do the screens show for `Cc1cc(C)cc(NC2c3ccccc3C(=O)N2c2ccc(Cl)cc2)c1` (configuration not stated)?
CBX7 AlphaScr: 0.99; CBX7 AlphaScr z-score: -0.16

Results for c1ccc(-c2nnc3sc(CN4CCCCCC4)cn23)cc1 ?
CBX7 AlphaScr: 1.1; CBX7 AlphaScr z-score: 1.7

How did CCN1C(=O)c2ccccc2S(=O)c2ccc(C(=O)N3CCC4(CC3)OCCO4)cc21 (configuration not stated) do in these assays?
CBX7 AlphaScr: 1; CBX7 AlphaScr z-score: 0.67
